Source: PubChem (several laboratories)
Mtb bLac sens = beta-lactam sensitization of Mtb H37Rv, H37Rv | M. tuberculosis H37Rv growth with meropenem, percent inhibition; hits of this screen are not shown here | inhibition, % at 25 µM | AID 434955, 2010 | 330,000 compounds, 0.27% hits;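 active = about 74% or more and at least 40 points above the plate without the antibiotic, then above 30% in a dose series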;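 note: growth measured after seven days incubation then overnight dye step; 0% = bacteria only wells and 100% = bacteria with antibiotic; twin plates without the antibiotic show which effects depend on it; some results filed as inactive read as strong as hits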
Mtb growth = M. tuberculosis H37Rv growth inhibitors, H37Rv strain (AID 1626); 220,000 compounds, 0.95% hits; inhibition, % at 10 µM, or IC50 in µM where a hit was titrated; M. tuberculosis H37Rv growth inhibition; higher % means a stronger effect;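 active = confirmed in a dose series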;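 note: bacteria incubated seven days before Alamar blue readout; 0% = bacteria only wells and 100% = bacteria with antibiotic wells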
YopH PTP inh = YopH tyrosine phosphatase inhibitors, primary screen, biochemical, fluorescence Ex485/Em525 | YopH tyrosine phosphatase [Yersinia enterocolitica] | inhibition, %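 (about 10 µM by stock and volumes)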 | 140,000 compounds, 0.16% hits | AID 898, 2007;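 active = inhibition of 50% or more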;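 note: controls were vehicle for no effect and minimum signal wells for full effect; inactives centre near -20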
RecA intein inh = Mtb RecA intein splicing inhibitors, primary screen, biochemical, fluorescence, HTS. inhibition, %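 (about 9 µM by stock and volumes)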. Protein RecA (Mycobacterium tuberculosis (strain ATCC 25618 / H37Rv)), P9WHJ3. 290,000 compounds, 0.75% hits. cell-free RecA intein splicing; in the data active = inhibition above about 30%;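 note: 0% = vehicle wells and 100% = reference inhibitor control wells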
Target sequence (P9WHJ3 whole entry, looked up): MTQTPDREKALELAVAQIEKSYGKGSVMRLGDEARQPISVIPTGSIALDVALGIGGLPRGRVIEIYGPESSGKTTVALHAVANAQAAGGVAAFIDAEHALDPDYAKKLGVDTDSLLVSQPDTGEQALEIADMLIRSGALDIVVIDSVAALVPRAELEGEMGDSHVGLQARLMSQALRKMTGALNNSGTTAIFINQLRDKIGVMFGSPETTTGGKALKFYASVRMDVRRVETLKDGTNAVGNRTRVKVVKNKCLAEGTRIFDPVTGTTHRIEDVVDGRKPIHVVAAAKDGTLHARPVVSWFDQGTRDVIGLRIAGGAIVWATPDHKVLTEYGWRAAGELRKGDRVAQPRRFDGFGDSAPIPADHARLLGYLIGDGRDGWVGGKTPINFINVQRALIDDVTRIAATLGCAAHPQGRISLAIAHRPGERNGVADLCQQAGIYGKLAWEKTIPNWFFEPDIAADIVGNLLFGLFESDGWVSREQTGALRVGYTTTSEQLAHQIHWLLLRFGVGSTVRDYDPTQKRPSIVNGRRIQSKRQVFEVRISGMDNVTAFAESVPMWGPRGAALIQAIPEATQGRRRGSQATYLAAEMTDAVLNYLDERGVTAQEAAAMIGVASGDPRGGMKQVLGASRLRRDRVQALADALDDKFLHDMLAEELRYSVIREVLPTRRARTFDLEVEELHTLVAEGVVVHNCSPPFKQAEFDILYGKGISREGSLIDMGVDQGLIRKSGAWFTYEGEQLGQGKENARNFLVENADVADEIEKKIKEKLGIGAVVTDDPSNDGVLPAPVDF
Arbovirus anti = antivirals against arbovirus infection, primary screen, cell-based, full library, 10K replicate subset; arbovirus infection cell-based antiviral screen; inhibition, % at 10 µM; 200,000 compounds, 0.37% hits;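 active = inhibition from about 30%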;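 note: bluetongue infection of BSR cells; cell survival read as ATP light after 72 h; 0% = infected wells without compound and 100% = uninfected wells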
Arbovirus anti repeat = recorded beside Arbovirus anti, whose call it bears; inhibition, %; measured here: 10K subset replicate screen; many hits read low in the repeat;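 first of two repeat runs on a subset; 0% = infected and 100% = uninfected wells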
Numbers without * were called inactive; · = not tested or not shown.

SMILES	Mtb bLac sens	Mtb growth	YopH PTP inh	RecA intein inh	Arbovirus anti	others
COc1cc(CNCc2ccc3c(c2)OCO3)c([N+](=O)[O-])cc1OC	-5	·	·	-5.9	·
Cc1cc(C)c(S(=O)(=O)N2CCC(C(=O)NCc3ccc(Cl)cc3Cl)CC2)c(C)c1	19	5%	2	-1.5	5
C/C(=N/NC(=O)c1cccnc1)C1=C(O)CC(C)(C)CC1=O	3	1%	·	-4.0	-4
OCCC1CN(Cc2c(F)cccc2Cl)CCN1C1CCCC1 (centres undefined)	0	9%	·	3.6	-5
Nc1ccc2nonc2c1[N+](=O)[O-]	-6	7%	·	·	2
N=C1CCCN1CC(=O)c1ccc(Br)cc1	8	7%	-6	1.3	-12
Cc1ccc(-c2csnn2)cc1	-2	-4%	·	-1.0	·
O=C1NC(=O)N(c2ccccc2)C(=O)/C1=C\c1ccc([N+](=O)[O-])o1	99	-4%	·	-1.5	·
CCOC(=O)c1[nH]c(C)c(C(=O)OCC)c1C	1	6%	-47	1.1	-1	Arbovirus anti repeat=-1
O=C(COc1ccccc1)NC(=S)Nc1ccc2c3c(cccc13)CC2	17	15%	-16	-1.1	-5
COC(=O)c1ccc(C(=O)OC)c(NC(=S)N2CCCCC2C)c1 (centres undefined)	-2	6%	-15	-10	-2
CCOC(=O)c1cnc2c(F)ccc(F)c2c1Sc1ccccc1	-6	7%	·	20	·
CC(=O)Nc1ccc(NC2=C/C(=N/S(=O)(=O)c3cccs3)c3ccccc3C2=O)cc1	13	-5%	·	·	-34
COc1ccccc1-n1c(-c2ccccc2)c[nH]c1=S	·	2%	·	-1.2	-2
Cc1ccc2cc3cc(C(=O)NCCCN4CCCC4=O)oc3nc2c1	-5	·	·	-0.8	·
COc1cc2c(c(OC)c1OC)CC(=O)N(C)CC2	3	5%	-34	-1.1	2
CC(=O)Nc1cccc(NC(=O)c2cc(C)on2)c1	-1	-11%	6	-1.3	5
O=C(CSCSCC(=O)Nc1ccc2c(c1)OCO2)Nc1ccc2c(c1)OCO2	-14	29%	-5	0.6	-6
COc1ccc(NC(=O)c2cc(-c3ccco3)nc3ccccc23)cc1S(=O)(=O)N1CCOCC1	-3	-11%	·	-2.3	·
COc1ccccc1/C=C/C(=O)Nc1ccc(S(=O)(=O)Nc2cc(C)on2)cc1	90	·	·	-0.2	·
O=C(Nc1ccccc1C(F)(F)F)Nc1cccc2ccccc12	-4	-1%	-31	·	-5
COC(=O)C1C/C(=N\NS(=O)(=O)c2ccc(C)cc2)c2sccc2C1 (centres undefined)	4	-3%	-30	-1.8	9
COc1cc(C#Cc2c(-c3ccccc3)n(C)c3ccccc23)cc(OC)c1	9	·	·	7.8	·
O=C(CSc1nc2c(sc3ccccc32)c(=O)n1CCCN1CCOCC1)NC1CCCC1	14	0%	-34	1.0	5
CCC(C)NC(=O)CN(c1cc(Cl)cc(Cl)c1)S(C)(=O)=O (centres undefined)	6	-6%	·	-2.3	-8
SMILES	Mtb bLac sens	Mtb growth	YopH PTP inh	RecA intein inh	Arbovirus anti	others
O=C1c2ccccc2C(=O)N1CCc1c[nH]c2ccccc12	-5	-3%	·	2.5	-3
O=C(NCCCn1ccnc1)c1cccc(S(=O)(=O)Nc2ccc(Br)cc2)c1	-18	·	·	3.4	·
CCCNC(=O)c1ccc(COc2cccc3ccccc23)o1	5	·	·	2.5	·
CC(C)NC(=O)CSc1nnc(-c2ccncc2)n1-c1ccccc1	-9	0%	9	-0.6	9
Cc1ccc(C(=O)OCC(=O)c2c[nH]c3ccccc23)cc1S(=O)(=O)N1CCCCC1	6	11%	-6	0.3	0
COc1cccc(CNC(=O)C2CCN(c3cnccn3)CC2)c1	-3	-4%	-8	2.3	0
O=C(O)c1ccccc1N=Cc1c(O)n(-c2nccs2)c(=O)c2ccccc12	-4	-10%	·	2.0	·
CCOCCCN(C(=O)CCC(=O)Nc1cc(C)on1)C(C(=O)NC(C)(C)CC)c1cccc(OC)c1OC (centres undefined)	5	·	·	-1.9	·
COc1ccc(Nc2nc3ccc(C)cc3cc2C#N)c(OC)c1	6	-3%	-18	-0.5	-2
O=C(O)c1ccccc1Nc1cccc(C(F)(F)F)c1	-4	·	-31	9.1	38*
COc1ccc(-c2noc(CCC(=O)N3CCN(c4cccc(C(F)(F)F)c4)CC3)n2)cc1	1	1%	-19	1.4	1
Cn1cc(P(=O)(N2CCOCC2)N2CCOCC2)cc1P(=S)(N1CCOCC1)N1CCOCC1	-1	4%	·	-2.3	5
CCC(C)NC(=O)CCn1c(-c2ccccc2)cc(C(C)=O)c1C (centres undefined)	-9	-4%	-11	-3.8	-4
CCOc1cc2c(cc1OCC)-n1cccc1C(c1ccc(OC)c(O)c1)NC2 (centres undefined)	10	·	·	0.1	·
COc1ccc(CCCc2nnc(SCC(=O)Nc3cccc(C)c3)o2)cc1	69	45%	-11	-0.4	3
Nc1c(C(=O)Nc2cccc(F)c2)nnn1-c1ccc2c(c1)OCCO2	6	·	·	0.9	·
CCCc1cc(=O)[nH]c(SCCOC(=O)c2ccccc2)n1	-8	-4%	-29	-0.6	9
Cn1c(N)c(C(=O)/C=C/c2ccccc2)c(=O)[nH]c1=O	-10	-10%	·	-1.6	·
CCCCCCN=CC1=C(O)C(C(=O)OC)C(C)(C)CC1=O (centres undefined)	1	-2%	5	-2.8	3	Arbovirus anti repeat=10
Cc1ccc(S(=O)(=O)N(C)CC(=O)Nc2nnc(CC(C)C)s2)cc1	2	·	·	2.5	·
O=C(c1ccc(F)cc1)C(CN1CCOCC1)c1ccccc1 (centres undefined)	-5	6.1µM*	-53	8.2	-45
N#CC1=C(N)Oc2cc(N)ccc2C1c1ccc(Cl)cc1 (centres undefined)	-3	·	·	-13	·
Cc1cc(C(=O)OC2CCOC2=O)c2ccccc2n1 (centres undefined)	-6	12%	0	-0.8	1
FC(F)(F)C(Oc1nc(Nc2ccc(Cl)cc2)nc(N2CCOCC2)n1)C(F)(F)F	-8	4%	-25	-1.4	-8
CC(Oc1ccc(F)cc1)C(=O)Nc1sc2c(c1C(=O)NCc1cccnc1)CCCC2 (centres undefined)	93	-2%	-30	9.6	-11
SMILES	Mtb bLac sens	Mtb growth	YopH PTP inh	RecA intein inh	Arbovirus anti	others
COC(=O)c1c(C)[nH]c(C(=O)/C=C/c2ccccc2Cl)c1C	1	-2%	·	-14	·
CCCn1c(N2CCN(C(=O)N3CCCCC3)CC2)nc2ccccc21	0	6%	-14	-0.4	-1
COc1ccc(OCC(=O)N2CCN(CC3CC4C=CC3C4)CC2)cc1 (centres undefined)	-1	-2%	-30	-3.0	-5
O=C(CSc1nc2cc([N+](=O)[O-])ccc2n1-c1ccccc1)NCc1ccc2c(c1)OCO2	-1	-1%	-5	-4.8	-13
C/C(=N\Nc1ccc(C(=O)O)cc1)c1ccc(S(=O)(=O)NCc2ccco2)cc1	15	10%	·	-0.4	·
COc1ccc(CN(C(=O)CNC(=O)c2ccco2)C(C(=O)NCC2CCCO2)c2ccccc2)cc1 (centres undefined)	1	·	·	4.6	·
O=C(NCc1ccc(Cl)cc1)Nc1ccc(F)cc1	-1	·	·	0.9	·
O=C(CSc1nnc(COc2ccccc2)o1)N1CCCC1	-1	·	·	-1.8	·
CCOCCCNC(=O)C(NC(=O)c1ccccc1O)c1ccccc1 (centres undefined)	3	-3%	·	-0.6	4
O=C(NC1CCCCC1)c1cc(-c2ccccn2)nc2ccccc12	-6	-6%	·	2.4	12
Cc1onc(-c2ccccc2Cl)c1C(=O)N1CCN(C(=O)c2ccco2)CC1	-18	-13%	-5	-2.0	-1
CCOC(=O)N/N=C(/C)c1ccc(N2C(=O)C3CCCCC3C2=O)cc1 (centres undefined)	11	-3%	·	3.5	3
COc1ccc(-c2ccc(SCC(=O)NC3CCCCC3)nn2)cc1	4	·	·	0.8	·
C/C(Cc1ccccc1)=N\NC(=O)CNC(=O)/C=C\c1ccccc1	-6	4%	·	-1.4	·
CSc1ccc(S(=O)(=O)N2CCC(C(=O)N3CCc4ccccc4C3)CC2)cc1	56	·	·	0.1	·
O=C(CCS(=O)(=O)c1ccc(F)cc1)Nc1nnc(-c2ccco2)o1	82	·	·	-2.3	·
COc1cc(OC)cc(-c2nn[nH]n2)c1	1	-1%	-34	-2.4	4
CC1CN(CC(O)COc2ccc(C#N)cc2)CCN1CC(O)COc1ccc(C#N)cc1 (centres undefined)	-3	·	·	-0.6	·
O=C(NCCN1CCOCC1)c1cc(-c2ccc(Cl)cc2Cl)on1	1	·	·	0.0	·
O=C(Nc1ccccc1)c1ccc2ccccc2n1	2	8%	·	0.0	8
C[N+](C)(C)CCCCCC[N+](C)(C)C	1	-8%	·	-1.7	·
Cc1nn(-c2ccccc2)nc1-c1nnc(-c2ccc(C(F)(F)F)cc2)o1	-8	-8%	·	0.9	·
CCN(CC)c1ccc(CNC23CN4CN(CN(C4)C2)C3)cc1	-8	-9%	-2	·	5	Arbovirus anti repeat=0
COc1ccc(OC(=O)/C=C/c2ccc([N+](=O)[O-])cc2)cc1	97	·	·	2.3	·
CS(=O)(=O)N1CCc2cc(C(=O)N3CCOCC3)ccc21	-7	4%	-25	-0.6	9
SMILES	Mtb bLac sens	Mtb growth	YopH PTP inh	RecA intein inh	Arbovirus anti	others
CCOC(=O)c1nn(-c2ccc3c(c2)OCO3)cc1O	71	7%	-42	-0.2	-3
O=[N+]([O-])c1ccccc1NC1CCN(Cc2ccccc2)CC1	-10	2%	·	-0.5	·
Cc1noc(C)c1C(=O)OCC(=O)NC(=O)NC12CC3CC(CC(C3)C1)C2	-8	-4%	-48	·	3
Cc1cc(NC(=O)CN2CCN(C/C=C/c3ccccc3)CC2)c([N+](=O)[O-])cc1C	-8	6%	-15	8.6	-4
O=S(=O)(Nc1cccc(Oc2ccc(Cl)cc2)n1)c1ccc(F)cc1	0	·	·	6.0	·
COc1ccccc1C(=O)N1CCN(S(=O)(=O)c2ccccc2)CC1	-12	-10%	-39	1.2	3
O=C(Nc1cccc(Cl)c1)N1CCCCCC1	-1	·	·	-2.0	·
O=C1/C(=C/c2cccs2)Cc2ccccc21	-11	-1%	-23	-2.7	0
O=C1c2ccccc2C(=O)C12OC2c1ccc(Cl)cc1 (centres undefined)	1	-1%	12	72*	-7
CCOc1cc(N2CCOCC2)c(OCC)cc1NC(=O)CN1CCc2ccccc2C1	70	8%	-21	5.0	-8
Cc1cnc(C(=O)NC(Cc2ccccc2)c2ccccc2)cn1 (centres undefined)	1	·	·	-0.1	·
CCc1ccc2oc(-c3ccc(OC)cc3)cc(=Nc3cccc(C(=O)O)c3)c2c1	15	11%	·	7.8	15
COc1ccc(OC)c(NC(=O)CSc2nnc(-c3ccncc3)s2)c1	-12	·	·	-0.5	·
COc1cc2c(C(=O)O)c(C)n(CC(C)C)c2c2ccccc12	·	·	-13	0.4	54*
COc1ccc(CCNC(=S)NCCc2ccc(OC)c(OC)c2)cc1OC	3	1%	·	-0.6	·
Cc1cc(=O)[nH]c(/N=C(\N)Nc2ccc3c(c2)OCCO3)n1	4	-11%	·	-0.6	-3
O=C(c1cccs1)N(Cc1ccco1)c1nc(-c2ccc(F)cc2)cs1	6	-9%	-22	·	3
Cc1ccc(-c2cc(-c3n[nH]c(=S)o3)c3ccccc3n2)cc1	4	8%	-4	-4.3	4
CCCOCC1CC2(CC(C)(c3csc(N)n3)OC2=O)C(=O)O1 (centres undefined)	-12	-2%	-10	-1.7	1
c1ccc2c(c1)ncn2-c1ncnc2sc3c(c12)CCCC3	45	-5%	11	3.1	-3
COc1ccccc1C(=O)n1nc(-c2cccnc2)nc1N	1	5%	-19	-0.4	3	Arbovirus anti repeat=2

Not all compounds are listed; the hit share may differ from the screen's.
